Source: PubChem (National Center for Advancing Translational Sciences (NCATS))
HPGD inh: blocks human HPGD enzyme activity. P15428. purified HPGD, NADH fluorescence kinetic, PGE2 substrate. Potency, µM, without a hit: at the highest dose activity change, negative = inhibition, most hits filed as inhibitors. 150,000 compounds, 4.3% hits; active = well fitted inhibition curve with a large enough effect (not every such curve was filed as active); inconclusive = small, poorly fitted or top-dose-only effect, or another doubt; inactive = no such curve, though single readings can be large or run the other way;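 note: top concentration of the series not given in the record; plate controls included wells without enzyme; inactives centre near -10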
Target sequence (P15428 whole entry, looked up): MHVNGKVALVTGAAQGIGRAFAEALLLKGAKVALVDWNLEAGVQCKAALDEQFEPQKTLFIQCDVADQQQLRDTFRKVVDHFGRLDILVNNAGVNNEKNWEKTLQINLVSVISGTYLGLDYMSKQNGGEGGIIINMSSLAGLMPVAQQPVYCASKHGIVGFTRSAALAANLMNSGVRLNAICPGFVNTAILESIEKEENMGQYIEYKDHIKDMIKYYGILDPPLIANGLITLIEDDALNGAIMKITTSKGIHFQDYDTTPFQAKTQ
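NADH formation kinetics: reaction with 30 uM PGE2 and 1 mM NAD+ (final), 20 nM enzyme, Tris-HCl pH 8 with Tween 20, after 15 min compound preincubation at room temperature. Fluorescence change, last versus first of five reads.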
Starred values were filed as active, the others as inactive; ? = inconclusive; & = joins results of further samples. % is set by controls: 0 for no effect and ±100 for the full control effect; potency is the fitted concentration of half-maximal effect. Only part of the results is shown; count on the stated rates, not on these rows.

SMILES | HPGD inh
Cc1cccc(OCc2nnc(SCn3nnc4ccccc4c3=O)o2)c1 | ?
CN(C)CCCNC(=O)/C(=C\c1ccc(-c2ccc(Br)cc2)o1)NC(=O)c1ccccc1 | -18%
Cn1ccnc1SCc1cn2cc(Br)ccc2n1 | -3%
CCc1cc2c(=O)c(-c3cscn3)coc2cc1O | -15%
O=C(NC(Nc1nc2ccc([N+](=O)[O-])cc2s1)(C(F)(F)F)C(F)(F)F)c1cccnc1 | -23%
CC1CCCC(C)N1C(=O)COC(=O)c1ccc2c(c1)OCO2 (centres undefined) | -21%
COc1ccc(N2C(=O)c3ccccc3NC23CCCCC3)cc1 | ?
N#Cc1c(N)nc2c(c1-c1ccncc1)CCCCC2 | ?
Cc1ccc(S(=O)(=O)Nc2ccccc2-c2ccccc2)cc1 | -7%
COc1cccc(/C=C/C(=O)OCC(=O)NCC2CCCO2)c1OC (centres undefined) | -17%
CN1c2cccc3cccc(c23)N(C)C1c1cccs1 | ?
Cc1cccc(NC(=S)N2CCOCC2)c1C | -4%
CCOc1ncccc1C(=O)OCC(=O)c1c(N)n(C)c(=O)n(C)c1=O | -6%
Cc1cc(C(=O)CSc2nc(N)cc(N)n2)c(C)n1CCc1ccc(F)cc1 | 2%
CC1Oc2ccccc2N(CC(=O)NCc2cccs2)C1=O (centres undefined) | -6%
CCOC(=O)c1ccc(NC(=S)N2CCSC2c2ccc(Cl)cc2)cc1 (centres undefined) | -9%
Cc1ccc(C)c(N2C(=O)c3cc(N4CCOCC4)c([N+](=O)[O-])cc3C2=O)c1 | -3%
COC(=O)CNC(=O)c1ccccc1F | -3%
O=C(NNc1ccccc1[N+](=O)[O-])Nc1ccc(Cl)c(Cl)c1 | -19%
COc1cccc(-c2nn(-c3ccccc3)cc2/C=C\C(=O)c2cccs2)c1 | -29%
CCC(=O)Nc1c(S(=O)(=O)c2ccc(C)cc2)c2nc3ccccc3nc2n1C(C)c1ccccc1 (centres undefined) | ?
S=C=Nc1cccc(NC(=S)NCCCCNC(=S)Nc2cccc(N=C=S)c2)c1 | -12%
CC(NS(=O)(=O)c1ccccc1)C(=O)Nc1ccc(S(N)(=O)=O)cc1 (centres undefined) | -19%
CC(=O)c1c[nH]c(C(=O)NCC2CCCO2)c1 (centres undefined) | 0%
Cc1ccc(NC(=O)Cn2nc(-c3ccccc3)nc2-c2ccccc2)c(C)c1 | -10%
COc1ccc(CCNC(=O)C(=O)NCCOc2ccccc2Cl)cc1OC | -8%
CC1(C)CC(=O)C2=C(C1)NC(=O)CC2c1ccc(N(CCC#N)CCC#N)cc1 (centres undefined) | -9%
CCCc1cc(=O)oc2cc(C)c(CN3CCCC3)c(O)c12 | -13%
CCCCn1nc2cc(C(=O)NC3CCc4ccccc43)ccc2c1OCC (centres undefined) | ?
Cc1cccc(OCCNC(=O)CSc2ccc(C(F)(F)F)cc2[N+](=O)[O-])c1 | -24%
Cc1ccccc1NC(=O)Cn1c(=O)n(Cc2ccccc2)c(=O)c2c(C)c(C)sc21 | -5%
CCOc1cc(/C=N/NC(N)=O)cc(Br)c1OCc1ccccc1F | 0%
COc1ccc(-n2c(Cc3cccn3C)nnc2SCC(=O)NC2CCCCC2)cc1 | -3%
CC1=C(C(=O)OCc2ccccc2)C(c2ccc3ccccc3c2)NC(=O)N1CCCCCC(=O)O (centres undefined) | -4%&-10%
Brc1ccc(OCCOc2cccc3cccnc23)cc1 | -15%
CCN(C(=O)CN1CCN(c2ccc(OC)cc2)CC1)c1c(N)n(Cc2ccccc2)c(=O)[nH]c1=O | 0%
COC(=O)CC1C(=O)NCCN1C(=O)CSc1nnc(Nc2ccc(C)cc2)s1 (centres undefined) | -11%
CC(C)CC(=O)N1CCN(S(C)(=O)=O)CC1 | -6%
Nc1cc(Br)c(N)c(Br)c1 | -1%
O=C1OCCC1Sc1nc2ccccc2s1 (centres undefined) | 2%

Continued, overlapping the part above by five compounds.
SMILES | HPGD inh
CCN(C(=O)CN1CCN(c2ccc(OC)cc2)CC1)c1c(N)n(Cc2ccccc2)c(=O)[nH]c1=O | 0%
COC(=O)CC1C(=O)NCCN1C(=O)CSc1nnc(Nc2ccc(C)cc2)s1 (centres undefined) | -11%
CC(C)CC(=O)N1CCN(S(C)(=O)=O)CC1 | -6%
Nc1cc(Br)c(N)c(Br)c1 | -1%
O=C1OCCC1Sc1nc2ccccc2s1 (centres undefined) | 2%
O=Cc1cn(CC(=O)N2CCCc3ccccc32)c2ccccc12 | -9%
CCOc1ccc(CC(=O)Nc2sc(Cc3ccccc3)cc2C(N)=O)cc1OCC | ?
COc1ccc(-c2c(C)cc3oc(=O)cc(-c4ccccc4)c3c2C)cc1F | -10%
Cc1nnsc1NC(=O)OCC(C)(C)C | -4%
COCCNC(=O)C(C)N(c1ccc(OC)cc1)S(C)(=O)=O (centres undefined) | -3%
Cc1ccc(C)c(-c2nc3cc(N)ccc3o2)c1 | ?
COc1ccc(/C=N/NC(=O)COc2ccccc2-c2ccccc2)cc1 | -23%
CCOCCCNC(=O)c1cn(C)c2ccc(S(=O)(=O)N(C)C3CCCCC3)cc2c1=O | -20%
N#Cc1cnn2c1nc(N1CCCCC1)c1ccccc12 | ?
O=C(NCCc1ccccc1)c1cc(-c2ccco2)on1 | -10%
Cn1cccc1-c1nc2ccccc2n1Cc1ccccc1 | -17%
O=S(=O)(NCC1CCCO1)c1ccc(S(=O)(=O)N(Cc2ccc(F)cc2)Cc2ccccn2)cc1 (centres undefined) | ?
Cc1ccc(-c2nnc3ccc(SCC(=O)N4CCCc5ccccc54)nn23)cc1 | -13%
CC(C)C(=O)NNc1nc2ccccc2s1 | -19%
CC(=O)Oc1ccc(N2C(=O)CC(N3CCOCC3)C2=O)cc1 (centres undefined) | -5%
CCN(CC)S(=O)(=O)c1cccc(C(=O)NC(Cc2c[nH]c3ccccc23)c2nnc3n2CCC3)c1 (centres undefined) | -1%
CC(=O)Nc1nc2ccc(Br)cc2s1 | -7%
COc1ccc(NC(=O)CCC(=O)OCC(=O)c2ccc(Oc3ccc([N+](=O)[O-])cc3)cc2)cc1 | -14%
O=C(Nc1ccc(Br)cc1)c1cccn1-c1ncc(C(F)(F)F)cc1Cl | -8%
COC(=O)c1cccc(NC(=O)CSc2nnc(C)n2Cc2ccccc2)c1 | -12%
COc1c(C(C)C)oc2cc3oc(=O)ccc3cc12 | -26%
NC(=S)SCCC(=O)O | -2%
COc1ccc(C(C[N+](=O)[O-])c2c(-c3ccccc3)cc3ccccn23)c(OC)c1 (centres undefined) | 22µM*
CC(C)=CCC(C)(C)C1OCCN1C(=O)Nc1ccccc1 (centres undefined) | -4%
Cc1ccc(-c2noc(CN(C(=O)CCCCCN3C(=O)c4ccccc4C3=O)C(C)C)n2)cc1 | -6%
CCOc1cc(-c2cc(N)n[nH]2)cc(OCC)c1OCC | -10%
O=c1[nH]c(C(F)(F)F)nc2c1nnn2Cc1ccccc1F | 18µM*
CCN1CCN(CC(=O)c2c[nH]c3ccccc23)CC1 | -9%
CCCNCc1nnc(-c2ccccc2Cl)o1 | -25%
O=S(=O)(Cc1cc(Sc2ccccc2)nc(-c2ccccc2)n1)c1ccccc1 | -18%
CCC1(C)N(O)C(C)(C)C(c2ccc(F)cc2)=[N+]1[O-] (centres undefined) | -7%
CCN(CC)S(=O)(=O)c1ccc(NS(=O)(=O)c2ccc(O)c([N+](=O)[O-])c2)cc1 | 35µM*
COC(=O)c1ccccc1-c1ccc(/C=C2\C(=O)N(c3ccccc3)N=C2c2ccccc2)o1 | -29%
CCOC(=O)CN1C(=O)N[C@H](c2ccc(Br)cc2)C(C(C)=O)=C1C | -23%
CCC(SC1=N/C(=C/c2ccccc2)C(=O)N1c1ccccc1)C(=O)Nc1cc(C)on1 (centres undefined) | ?
OC1(C2(O)CC(c3ccccc3)ON2)CCCCC1 (centres undefined) | -30%
CCOCCCNC(=O)C(c1ccccc1)N(Cc1cccs1)C(=O)CNC(C)=O (centres undefined) | -8%
O=C(CC1CCS(=O)(=O)C1)Nc1ccc[nH]c1=O (centres undefined) | -20%
O=C(Nc1cccc(C2OCCCO2)c1)c1cccs1 | -12%
O=c1oc2ccccc2cc1O | 18µM*
O=C(c1noc2c1CCCC2)N1CCOCC1 | -10%
S=C(NCCN1CCOCC1)N/N=C/c1ccccc1 | -1%
O=C(COc1ncnc2ccccc12)Nc1ccc(Cl)c([N+](=O)[O-])c1 | -10%
Cc1cc(NC(=O)Nc2cc(C)nn2-c2ccccc2)n(-c2ccccc2)n1 | -8%
CC(C)(C)c1ccccc1NC(=O)c1cccnc1 | -3%
C=CCc1ccccc1OCC(O)CNC(C)C (centres undefined) | -3%&4%&-7%
Cc1cc(S(=O)(=O)N2CCN=C2c2ccccc2)c(Cl)cc1Cl | -1%
Cc1ccccc1OCCSc1nnc(-c2ccncc2)n1C | -8%
O=C(CSc1ccc2nnc(-c3ccccn3)n2n1)NCc1ccco1 | -13%
O=C(/C=C/C=C/c1ccccc1)CC1(O)C(=O)N(CCc2ccccc2)c2ccccc21 (centres undefined) | -14%

Reprinted at random: five entries already listed, in no set order.
SMILES | HPGD inh
CCCCn1nc2cc(C(=O)NC3CCc4ccccc43)ccc2c1OCC (centres undefined) | ?
O=C(NNc1ccccc1[N+](=O)[O-])Nc1ccc(Cl)c(Cl)c1 | -19%
Cc1ccc(C)c(-c2nc3cc(N)ccc3o2)c1 | ?
Cn1cccc1-c1nc2ccccc2n1Cc1ccccc1 | -17%
Cc1ccc(S(=O)(=O)Nc2ccccc2-c2ccccc2)cc1 | -7%

Later entries:
SMILES | HPGD inh
C=C(C)c1cccc(C(C)(C)NC(=O)N2CCCC(C)C2)c1 (centres undefined) | -8%
CC1=NN(c2ccc(Cl)cc2)C(=O)/C1=C\c1cccn1-c1ccc(S(N)(=O)=O)cc1 | -11%
Cc1cccc(OCc2nnc(SCC(=O)Nc3cccc(C(=O)N4CCOCC4)c3)n2C)c1C | -3%
Cc1cccc(C)c1OCC(O)CN1CCC(CN2C(=O)c3cccc4cccc(c34)C2=O)CC1 (centres undefined) | ?
Cc1nn(C)c(C(=O)Nc2ccn(Cc3ccccc3F)n2)c1[N+](=O)[O-] | -6%
CNc1ccccc1-c1nc2ccccc2n(C)c1=O | -9%
CCN1C(=O)/C(=C2\C=Cc3ccccc3N2CC)SC1=S | -11%
Cc1cc(C)nc(NC(=O)/C=C/c2ccc(Cl)cc2Cl)c1 | ?
O=S(=O)(NCC(c1ccco1)N1CCOCC1)c1ccc(Cl)cc1 (centres undefined) | -12%
Cc1cc(C)cc(OC(C)c2ccnc3nc(/N=C/N(C)C)nn23)c1 (centres undefined) | ?
C#CC(C)(CC)NC(=O)Cn1nnc(-c2ccc(S(C)(=O)=O)cc2)n1 (centres undefined) | -8%
CCCCOc1ccc(/C=C2/Sc3ccccc3C2=O)cc1 | -14%
CN1/C(=C\C(=O)CSc2nncn2C)C(C)(C)c2ccccc21 | -22%
CCCC(=O)NC(=S)Nc1ccc(S(=O)(=O)Nc2ccc(OCC)cc2)cc1 | -17%
O=c1c(CCc2ccccc2)nc2cnc(Nc3ccccc3)nc2n1Cc1cccs1 | -9%
COc1ccccc1N1CCN(C(=O)C(F)F)CC1 | -9%
Cc1noc(C)c1C(=O)N(CC(=O)NC1CCCC1)Cc1ccccc1F | -11%
COc1c(F)c(F)c(C(=O)Nc2ccc(N3CCN(Cc4ccccc4)CC3)cc2)c(F)c1F | -10%
N#Cc1ccsc1NC(=O)CSc1ncn[nH]1 | -17%
C/C(=N\NC(=S)NCCc1ccccc1)c1ccc(Cl)cc1 | -18%
COc1ccc(NC(=O)CCNS(=O)(=O)c2cccc3nsnc23)cc1OC | -6%
O=C(NCc1cccs1)C1CCN(S(=O)(=O)c2cccs2)CC1 | -2%
CC(=O)C(C)Oc1cc(C)cc2oc(=O)c(C)c(C)c12 (centres undefined) | ?
O=C(Nc1cccc(S(=O)(=O)N2CCCCC2)c1)c1ccccc1NS(=O)(=O)c1ccc(F)cc1 | ?
CN(C)S(=O)(=O)c1ccc(NC(=O)c2cccnc2)cc1 | -4%
COc1ccc2nc(NC(C)=O)sc2c1 | -10%
O/N=C/c1ccccc1OCc1ccc(Cl)cc1 | -8%
Cc1ccccc1N=C1Nc2ccccc2CS1 | -12%
CCOc1cc(/C=C2/SC(=O)N(CC(=O)N3CCc4ccccc4C3)C2=O)ccc1OCC(=O)O | -19%
O=C(Cn1nc(-c2ccccc2F)ccc1=O)Nc1ccc(S(=O)(=O)N2CCCCCC2)cc1 | 32µM*

Two neighbouring compounds already listed, for reference:
SMILES | HPGD inh
Cc1cccc(OCc2nnc(SCn3nnc4ccccc4c3=O)o2)c1 | ?
CN(C)CCCNC(=O)/C(=C\c1ccc(-c2ccc(Br)cc2)o1)NC(=O)c1ccccc1 | -18%

New compounds follow:
SMILES | HPGD inh
CS(=O)(=O)N1CCN(c2nc(-c3ccc(F)cc3)cs2)CC1 | -4%
CC(C)Oc1cccc(C(=O)O)c1 | 2%
O=c1cc(N2CCOCC2)cnn1-c1ccccc1 | -9%
COc1cc(C(=O)Nc2cc(C(F)(F)F)ccc2N2CCOCC2)ccc1O | -7%
Cc1c(O)c(=O)n(-c2ccccc2)n1C | -6%
O=C1CCCC(NCCCCCCNC2=C([N+](=O)[O-])C(=O)CCC2)=C1[N+](=O)[O-] | -12%
Cc1ccccc1-n1c(=O)cc(N2CCc3ccccc3C2)[nH]c1=O | -12%
COc1ccc(NC(=O)NC2CC3CCCC(C2)N3Cc2ccccc2)cc1 (centres undefined) | -2%
CC(=O)c1ccc2c(c1)N(C)c1ccccc1S2 | -24%
